Compound activity deposited in PubChem by several laboratories.
Mtb growth: M. tuberculosis H37Rv growth inhibitors, H37Rv strain (AID 1626); 0.95% of 220,000 active; M. tuberculosis H37Rv growth inhibition; higher % means a stronger effect; inhibition, % at 10 µM; hits with a dose series show IC50 in µM;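 active means confirmed in a dose series; inconclusive means inhibition above 80% but not taken into the dose series; inactive means below 80% or under 30% at every dose of the series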;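 further: bacteria incubated seven days before Alamar blue readout; 0% = bacteria only wells and 100% = bacteria with antibiotic wells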
Mtb bLac sens: beta-lactam sensitization of Mtb H37Rv, H37Rv | 0.27% of 330,000 active | M. tuberculosis H37Rv growth with meropenem, percent inhibition; hits of this screen are not shown here | inhibition, % at 25 µM;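 active means about 74% or more and at least 40 points above the plate without the antibiotic, then above 30% in a dose series; inconclusive means first-round hits that could not be retested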;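 further: growth measured after seven days incubation then overnight dye step; 0% = bacteria only wells and 100% = bacteria with antibiotic; twin plates without the antibiotic show which effects depend on it; some results filed as inactive read as strong as hits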
Arbovirus anti: antivirals against arbovirus infection, primary screen, cell-based, full library, 10K replicate subset; AID 1251, 2008; inhibition, % at 10 µM; arbovirus infection cell-based antiviral screen; 0.37% of 200,000 active;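 active means inhibition from about 30%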;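 further: bluetongue infection of BSR cells; cell survival read as ATP light after 72 h; 0% = infected wells without compound and 100% = uninfected wells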
RecA intein inh: Mtb RecA intein splicing inhibitors, primary screen, biochemical, fluorescence, HTS; cell-free RecA intein splicing; Protein RecA (Mycobacterium tuberculosis (strain ATCC 25618 / H37Rv)), P9WHJ3; inhibition, %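 (about 9 µM by stock and volumes)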; 0.75% of 290,000 active; in the data active means inhibition above about 30%; inconclusive means no clear call, values can overlap the other calls;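 further: 0% = vehicle wells and 100% = reference inhibitor control wells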
Target sequence (P9WHJ3 whole entry, looked up): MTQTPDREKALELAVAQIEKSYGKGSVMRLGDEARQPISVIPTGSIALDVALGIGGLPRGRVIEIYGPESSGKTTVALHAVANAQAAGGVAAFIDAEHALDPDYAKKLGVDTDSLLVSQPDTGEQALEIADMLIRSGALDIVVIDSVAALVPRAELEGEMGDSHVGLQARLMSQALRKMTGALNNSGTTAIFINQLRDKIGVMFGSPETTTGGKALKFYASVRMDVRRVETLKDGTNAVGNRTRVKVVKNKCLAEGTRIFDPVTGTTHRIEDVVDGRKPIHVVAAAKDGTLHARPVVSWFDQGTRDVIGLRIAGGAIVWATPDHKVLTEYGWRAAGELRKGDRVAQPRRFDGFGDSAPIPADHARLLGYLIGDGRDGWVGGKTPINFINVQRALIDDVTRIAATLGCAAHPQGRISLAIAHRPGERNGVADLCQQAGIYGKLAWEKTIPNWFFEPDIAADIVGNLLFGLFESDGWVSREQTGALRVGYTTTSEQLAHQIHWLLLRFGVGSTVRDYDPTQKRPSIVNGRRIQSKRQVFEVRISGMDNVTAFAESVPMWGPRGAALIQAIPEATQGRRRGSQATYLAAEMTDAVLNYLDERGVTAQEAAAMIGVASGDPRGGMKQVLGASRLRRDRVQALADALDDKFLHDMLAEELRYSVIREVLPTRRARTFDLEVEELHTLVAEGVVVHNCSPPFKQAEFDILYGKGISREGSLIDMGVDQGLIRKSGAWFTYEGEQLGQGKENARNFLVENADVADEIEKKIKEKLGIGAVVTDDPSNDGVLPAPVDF
YopH PTP inh: YopH tyrosine phosphatase inhibitors, primary screen, biochemical, fluorescence Ex485/Em525; YopH tyrosine phosphatase [Yersinia enterocolitica]; inhibition, %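 (about 10 µM by stock and volumes)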; 0.16% of 140,000 active; AID 898, 2007;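 active means inhibition of 50% or more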;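 further: controls were vehicle for no effect and minimum signal wells for full effect; inactives centre near -20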
Arbovirus anti repeat: recorded beside Arbovirus anti, whose call it bears; inhibition, %; measured here: 10K subset replicate screen; many hits read low in the repeat;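 first of two repeat runs on a subset; 0% = infected and 100% = uninfected wells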
Numbers without * were called inactive; ? = inconclusive; . = not tested or not shown.

SMILES	Mtb growth	Mtb bLac sens	Arbovirus anti	RecA intein inh	YopH PTP inh	others
COc1ccc(NS(=O)(=O)c2cccc(N3CC(O)=C(c4ccccc4)C3=N)c2)cc1	31.4%	98.5	-0.3	-1.7	-21.9
CCN(CC)CCCn1c2c(c(SCC(=O)Nc3cccc(C(C)=O)c3)nc1=O)CCC2	.	-12.3	.	-1.5	.
CSc1ccc(CNC(=O)C(C)n2nc(C)c3c(C)n(-c4ccccc4)nc3c2=O)cc1 (stereo not drawn)	.	46.4	.	-2.9	.
CC(C)(C)[C@H]1C=C(C(=O)N2CCN(Cc3ccccc3)CC2)O[C@@H](OCCCCO)C1	-1.4%	-6.6	-4.4	0.7	.
O=[N+]([O-])c1cccc(/C([O-])=C(/C(=S)Nc2ccccc2)[n+]2ccccc2)c1	-2.5%	-10.4	-4.0	11.0	17.3
O/N=C/c1ccc(OCC(O)COc2ccc(/C=N/O)cc2)cc1	3.6%	27.6	-0.8	1.0	-17.4
COC(=O)c1ccc2c(=O)n(CCCCCC(=O)N3CCN(c4ccc(F)cc4)CC3)c(=O)[nH]c2c1	-15.4%	-1.7	-1.1	0.5	-0.5
CC(C)CC(c1nnnn1C1CCCC1)N1CCC(C(N)=O)CC1 (stereo not drawn)	-5.7%	-4.1	19.9	-1.3	.
O=C(NCCCN1CCOCC1)c1cc(-c2cccc(O)c2)on1	.	6.5	.	-0.9	.
CC(=O)/C(C#N)=C1\NC(=O)C(Cc2ccccc2Cl)S1 (stereo not drawn)	.	53.4	2.0	-0.1	-69.2
COc1ccc([N+](=O)[O-])cc1N1C(=O)c2cccc3cccc(c23)C1=O	-7.5%	-5.7	5.2	2.2	-22.0
Cc1cccc(NC(=O)CCS(=O)(=O)c2cccc3nsnc23)c1C	-6.6%	-3.7	4.1	2.9	-2.5
COc1ccc(C2N(C(=O)c3ccccc3)CCN2C(=O)c2ccccc2)cc1	-0.8%	-0.2	2.5	.	-8.9
CCOC(=O)CC(=O)CSc1nc2ccc(OC)cc2cc1C	-2.7%	3.4	-5.5	1.4	.
CC(C)OC(=O)c1ccc(NC(=O)C2C3CC4OC(=O)C2C4C3)cc1 (stereo not drawn)	-5.1%	7.7	-3.9	1.7	-17.1
O=[N+]([O-])c1ccc(-[n+]2c(-c3ccccc3)cc(-c3ccccc3)cc2-c2ccccc2)cc1	.	-3.6	.	0.4	.
CCn1c(SCC(=O)Nc2nccs2)nnc1-c1ccccc1	-4.5%	1.8	-1.4	1.2	14.5
O=C(O)c1cc(N/N=C/c2ccc(-c3ccccc3)cc2)ccc1Cl	.	7.5	.	3.4	.
CCc1ccc(CNc2ccc3c(c2)ncn3C)cc1	8.5%	11.6	-2.8	3.1	-17.8
CCOC(=O)C1CCCN(c2c(N3CCN(c4cccc(Cl)c4)CC3)c(=O)c2=O)C1 (stereo not drawn)	.	-3.4	6.2	-2.9	.
O=C(O)[C@@H]1C[C@H]1[C@@H](NP(=O)(c1ccccc1)c1ccccc1)c1ccccc1	-15.1%	0.9	1.8	1.1	-34.5
Cc1ccc(NC(=O)N2CCC(O)(c3ccc(Cl)cc3)CC2)cc1	-1.4%	-9.8	7.0	0.8	-13.1
C/C(=N\NC(=O)CN(c1ccc(Oc2ccccc2)cc1)S(C)(=O)=O)C(C)(C)C	-8.1%	0.7	-6.6	0.7	.
CC(=O)N(Cc1cc2ccccc2[nH]c1=O)c1ccc(C)cc1	.	-2.5	.	-0.7	.
CCOC(=O)c1cnc2c(Cl)c(Cl)ccc2c1N1CCN(C)CC1	0.0%	0.0	-6.1	2.1	3.2
Next structures:
SMILES	Mtb growth	Mtb bLac sens	Arbovirus anti	RecA intein inh	YopH PTP inh	others
O=c1n(-c2ccc(Br)cc2)cnn1-c1ncccc1[N+](=O)[O-]	3.5%	-5.8	2.1	-8.3	.
CCOC(=O)c1[nH]c(C)c(/C(O)=C2\C(=O)C(=O)N(CCN3CCOCC3)C2c2ccco2)c1C (stereo not drawn)	3.8%	-8.7	0.4	-2.7	.
Cc1cccc(N(CC(=O)O)CC(=O)O)c1	5.3%	3.7	-5.8	0.2	-12.3
Cc1ccc(O)c(CC(C)C)n1	-5.5%	-19.2	12.4	1.0	4.6
CCCCCCn1cc(C(=O)O)c(=O)c2cc(F)c(N3CCCCC3)cc21	.	99.8	.	-7.3	.
O=C1CCCN1S(=O)(=O)c1ccccc1	6.1%	-2.1	-1.2	0.3	.
CC1CCC(NC(=O)C(NC(=O)c2ccccc2)C(C)C)CC1 (stereo not drawn)	-1.4%	0.8	0.1	-1.9	.
O=C(NC1CCCC1)C(c1ccccn1)N(C(=O)c1csnn1)C1CCCCC1 (stereo not drawn)	-8.0%	10.6	-7.4	1.3	-166.7
C=CCNC(=O)c1ccc(-c2nc3ccccc3nc2-c2ccccc2)cc1	.	26.2	.	6.9	.
CCOC(=O)CSc1nc(CC)nc2ccccc12	-13.2%	-0.4	8.7	9.6	-29.4
Cc1ccc(-n2cc(CNCCCN3CCCC3=O)c(-c3ccc(F)cc3)n2)cc1	2.4%	-2.7	-2.1	3.9	.
Cc1ccc(-c2cc(O)cc3sc(=O)oc23)cc1C	66.1%	85.2	.	5.1	.
Cc1ccccc1-n1c(=S)[nH]c2nc3c(cc2c1=O)COC(C)(C)C3	-3.9%	1.6	.	-3.9	.
Cc1ccccc1NNC(N)=S	-11.9%	99.9	-0.5	-1.3	.
CN(c1ccc(OCC(=O)N2CCC(C(N)=O)CC2)cc1)S(=O)(=O)c1cccs1	-5.7%	-1.4	5.4	-0.2	-18.4
N/C(COc1ccccc1)=N\NS(=O)(=O)c1ccccc1	-2.9%	7.0	14.1	0.2	-46.5
Cc1c(C(=O)NCCN2CCOCC2)oc2ccc(Br)cc12	.	-0.1	.	1.6	.
c1c(CC2CCCC2)nnn1C[C@H]1CC[C@@H]([C@@H]2CC[C@H](Cn3cc(CC4CCCC4)nn3)O2)O1	.	-8.7	.	-0.5	.
CCOc1cc(N2CCOCC2)c(OCC)cc1NS(=O)(=O)c1ccc(Cl)s1	0.1%	-0.9	-12.2	.	-2.8
CCOC(=O)c1c(C)n(C)c2ccc(OCC(N)=O)cc12	0.2%	0.4	6.8	2.2	-9.5	Arbovirus anti repeat=0.2
CC(=O)Nc1ccc(/C=N/N2C(C)CCCC2C)cc1 (stereo not drawn)	1.6%	-3.7	-0.8	-0.7	.
CC(C)=CC(=O)Nc1ccccc1C(N)=O	-2.8%	4.9	-3.8	1.2	-51.0
Cc1c(/C(O)=C2\C(=O)C(=O)N(CCN(C)C)C2c2ccccc2)cnn1-c1ccccc1 (stereo not drawn)	-3.9%	0.3	.	.	.
FC(F)(F)c1cccc(N2CCN(C3CC4CCC3C4)CC2)c1 (stereo not drawn)	.	-5.8	.	1.8	.
CC1CCCN(S(=O)(=O)c2ccc(NC(=O)CN3CCCCC3)cc2)C1 (stereo not drawn)	.	-3.0	.	-0.1	.

Pulled one by one from above:
SMILES	Mtb growth	Mtb bLac sens	Arbovirus anti	RecA intein inh	YopH PTP inh	others
COc1ccc([N+](=O)[O-])cc1N1C(=O)c2cccc3cccc(c23)C1=O	-7.5%	-5.7	5.2	2.2	-22.0
C=CCNC(=O)c1ccc(-c2nc3ccccc3nc2-c2ccccc2)cc1	.	26.2	.	6.9	.
CCn1c(SCC(=O)Nc2nccs2)nnc1-c1ccccc1	-4.5%	1.8	-1.4	1.2	14.5

4 neighbouring records from above, quoted:
SMILES	Mtb growth	Mtb bLac sens	Arbovirus anti	RecA intein inh	YopH PTP inh	others
CC(C)=CC(=O)Nc1ccccc1C(N)=O	-2.8%	4.9	-3.8	1.2	-51.0
Cc1c(/C(O)=C2\C(=O)C(=O)N(CCN(C)C)C2c2ccccc2)cnn1-c1ccccc1 (stereo not drawn)	-3.9%	0.3	.	.	.
FC(F)(F)c1cccc(N2CCN(C3CC4CCC3C4)CC2)c1 (stereo not drawn)	.	-5.8	.	1.8	.
CC1CCCN(S(=O)(=O)c2ccc(NC(=O)CN3CCCCC3)cc2)C1 (stereo not drawn)	.	-3.0	.	-0.1	.

Other entries follow.
SMILES	Mtb growth	Mtb bLac sens	Arbovirus anti	RecA intein inh	YopH PTP inh	others
C=CCNC(=S)NNC(=O)c1ccco1	0.6%	-1.0	5.1	-0.2	.
Cc1nn(-c2ccccc2)c2c1C(c1ccc(F)cc1F)C(C#N)=C(N)O2 (stereo not drawn)	-1.0%	8.6	-0.7	50.4*	3.5
CCOc1cc(C2C(C#N)=C(N)Oc3n[nH]c(CC)c32)ccc1OCCN1CCOCC1 (stereo not drawn)	2.7%	-3.5	-5.8	50.3*	1.2
CCOc1cc(C=C2C(=O)NC(=O)NC2=O)ccc1OCC(=O)N1CCOCC1	-2.0%	-1.0	4.3	-1.7	-14.9
Cc1ccc(S(=O)(=O)c2nc(S(C)(=O)=O)sc2NCc2ccc3c(c2)OCO3)cc1	-3.7%	-6.3	-1.0	-2.8	-27.5
CCOc1ccc(CCNC(=O)COC(=O)c2cc(S(=O)(=O)N3CCOCC3)ccc2F)cc1OCC	.	8.0	.	-1.8	.
CCCCC(CC)Cn1c(O)c(/C=C2\C=NN=C2c2ccccc2)sc1=S (stereo not drawn)	9.9%	4.8	-42.4	1.7	-27.9
N#CCN(C(=O)COC(=O)C1CC2CCCC(C1)C2=O)c1ccccc1 (stereo not drawn)	.	-5.7	.	-2.5	.
Cc1ccc(N2CC(C(=O)O)CC2=O)cc1 (stereo not drawn)	0.0%	-3.9	0.1	0.5	.
CCOC(=O)c1ccc(C(=O)OCC)nc1	10.7%	71.2	11.2	-0.5	-35.5
Cc1cccc(Nc2nc(NCc3ccco3)c3ccccc3n2)c1	?	99.7	-34.7	32.6*	-33.2
CCOC(=O)C(CCC(C)=O)C(=O)c1ccccc1 (stereo not drawn)	.	-5.6	.	-2.2	.
CSc1nc2c(c(=O)[nH]1)C(c1cccs1)C1=C(CCCC1=O)N2 (stereo not drawn)	1.7%	1.9	-3.6	6.6	-46.6
Cc1cc(C)n2nc(SCC(=O)N(C)c3c(N)n(Cc4ccccc4)c(=O)[nH]c3=O)nc2n1	-2.4%	-10.2	2.1	-1.5	.
CN1OC2C(=O)N(c3ccccc3)C(=O)C2C1c1ccc(F)cc1 (stereo not drawn)	0.3%	-7.9	-2.9	-0.3	-33.8
CCOC(=O)C(=CNc1cscc1S(=O)(=O)C(C)C)C(=O)OCC	-5.5%	0.0	.	1.2	.
O=C(O)/C=C/c1cn(-c2ccccc2)nc1-c1ccc2c(c1)OCCO2	0.9%	22.4	.	1.4	.
O=P(OC1CCCCC1)(OC1CCCCC1)C(Nc1ccccc1)c1cccnc1 (stereo not drawn)	14.1%	4.4	.	1.4	.
C=CCc1c(O)nc(SCC(=O)c2ccccc2)[nH]c1=O	-12.8%	5.2	18.1	-1.9	-16.8
CC1CCN(C(=O)CN(C2CCCCC2)S(C)(=O)=O)CC1	-6.0%	-2.6	6.2	-0.5	-81.4
Cc1ccnc(-n2c(C)cc(C=O)c2C)c1	-4.2%	3.9	5.4	2.3	.
Cc1nc(C(C)N(C)Cc2nc(Cc3ccccc3F)no2)c(C)s1 (stereo not drawn)	-12.1%	3.7	.	-0.9	.
CCN(CC(=O)Nc1c(F)cccc1F)C(=O)C1CC(=O)N(CCc2ccccc2)C1 (stereo not drawn)	.	-3.6	.	-0.7	.
COc1cc(CNC(C)(C)C)cc(Br)c1OCc1cccs1	-2.6%	6.0	-13.2	-0.7	-5.2
Cc1ccc(CSc2nncn2-c2ccccn2)cc1	-3.0%	-11.2	5.7	-1.6	-3.7
Additional structures
SMILES	Mtb growth	Mtb bLac sens	Arbovirus anti	RecA intein inh	YopH PTP inh	others
CCN1CCN(c2cc(C)c3cc(NC(=O)c4cc(OC)cc(OC)c4)ccc3n2)CC1	2.1%	38.5	.	-0.4	.
O=C(NCc1ccccn1)c1ccc(N2CCCC2=O)cc1	-12.2%	-10.0	0.1	-4.6	-36.0
CCCNC(=O)NC(=O)CN1C(=O)NC(C)(c2ccc3ccccc3c2)C1=O (stereo not drawn)	.	0.7	.	0.0	.
CCCCCC1CCC(C(=O)N2CCOCC2)CC1 (stereo not drawn)	.	1.6	.	-0.9	.
CCCCNC(=O)Cn1cnc([N+](=O)[O-])n1	-4.5%	3.8	2.3	0.1	.
Cc1ccccc1OC(=O)Cn1c(C(F)(F)F)nc2ccccc21	.	-11.5	-4.3	-2.1	-11.5
Cc1c(C)c2ccc(OCC(=O)NCc3ccccn3)cc2oc1=O	.	-1.0	.	-0.5	.
OCC1(CCc2ccccc2)CCN(Cc2cnc(N3CCCC3)s2)CC1	2.2%	-9.0	-3.5	1.9	.
N/C(=N\OC(=O)CCC(=O)O)c1ncc(C(F)(F)F)cc1Cl	-3.9%	-8.8	-1.3	0.1	.

These rows are one share of the data; the hit share may differ from the screen's.
